Bioassay records (PubChem)
HNF4A DNA FP: change in binding of human HNF4 alpha to DNA; hit rate 0.3% among 360,000; P41235; activity change, % at 10 µM; HNF4a-FITC DNA binding, fluorescence polarization, 1 h; in the data active = activity change above about 30%, passing the limit was not always enough;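 also: controls were the assay level and a saturating level of protein; the project sought stronger binding though the title names inhibitors; some compounds called inactive have numbers as strong as hits; positive values seem to mean higher polarization but the record does not say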
Target sequence (P41235 whole entry, looked up): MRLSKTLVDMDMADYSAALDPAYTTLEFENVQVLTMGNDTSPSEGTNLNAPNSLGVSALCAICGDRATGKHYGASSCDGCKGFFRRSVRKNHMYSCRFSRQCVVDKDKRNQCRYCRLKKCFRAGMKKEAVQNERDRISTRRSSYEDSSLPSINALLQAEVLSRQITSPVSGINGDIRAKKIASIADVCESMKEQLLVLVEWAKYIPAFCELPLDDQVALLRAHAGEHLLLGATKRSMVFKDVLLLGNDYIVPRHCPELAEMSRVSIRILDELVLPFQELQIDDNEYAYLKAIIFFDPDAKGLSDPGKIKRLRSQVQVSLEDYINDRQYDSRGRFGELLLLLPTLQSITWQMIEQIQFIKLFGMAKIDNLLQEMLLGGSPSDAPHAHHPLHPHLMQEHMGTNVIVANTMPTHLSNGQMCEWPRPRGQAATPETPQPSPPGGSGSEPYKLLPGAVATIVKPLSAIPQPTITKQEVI
ALR inh: blocks human ALR sulfhydryl oxidase activity. purified ALR, DTT oxidation, H2O2 HRP-luminol luminescence. inhibition, % (test concentration not listed). hit rate 3.8% among 290,000. AID 485317;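 active = mean and each replicate at 75% or more; inconclusive = only one of the two met; inactive = neither met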;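 also: stock transfer was 7.5 nL into about 7.5 µL; 0% = neutral wells and 100% = wells with inactivated enzyme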
Target sequence (P55789 whole entry, looked up): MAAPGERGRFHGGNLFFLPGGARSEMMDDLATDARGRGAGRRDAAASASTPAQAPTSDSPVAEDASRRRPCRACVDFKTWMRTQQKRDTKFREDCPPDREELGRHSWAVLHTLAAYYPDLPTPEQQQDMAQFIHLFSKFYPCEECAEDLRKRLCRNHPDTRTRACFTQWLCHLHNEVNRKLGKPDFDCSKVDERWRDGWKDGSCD
AF4-AF9 inh: blocks AF4 peptide binding to human AF9 | inhibition, % at 10 µM | AlphaScreen, biotin-AF4 peptide binding to FLAG-AF9 | AID 651704 | hit rate 0.47% among 350,000;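 active = every replicate reaching a set inhibition limit, whatever the replicate mean, cut at about 25% in these data; inconclusive = mean inhibition reaches that limit but some replicates miss it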;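 also: 0% = plate neutral control median and 100% = total signal loss; the record names both 10 and 1 µM as test concentration; the first replicate is given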
Vif TR-FRET: HIV-1 Vif–A3G interaction blockers – biochemical, TR-FRET, GST-Vif 1-94, biotin-A3G peptide, dose response retest, primary screen (AID 1117319); TR-FRET GST-Vif / biotin-A3G peptide binding; higher % means a stronger effect; test concentration not given here; strong numbers were not always called active; inhibition, %, or IC50 in µM where a hit was titrated; hit rate 0.57% among 260,000;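 active = above the screen mean plus three standard deviations and confirmed in dose response; inconclusive = results disagree or hit not tested in dose response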;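 also: Vif residues 1-94 fused to GST binding biotinylated APOBEC3G peptide 110-148; 0% = full assay without inhibitor and 100% = GST in place of GST-Vif; retest series ran down from 100 µM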
Ecoli growth: E. coli growth inhibition. hit rate 0.21% among 330,000. OD600 absorbance (concentration not given with the values). Escherichia coli growth, OD600, 23 h; hits give low values. AID 1053175;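 active = OD600 absorbance below the run mean of sample wells minus 3.6 SD, in any replicate, cut at about 0.56 in these data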;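 also: stock transfer was 300 nL into about 60 µL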
Ecoli rRNA inh: inhibitors of bacterial rRNA selective over humanized ribosomes | E. coli WT GFP vs humanized-ribosome RFP mutants, fluorescence, 24 h; hits give low values; DMSO median 0, no signal -100 | GFP signal change (wild-type ribosome), % (no concentration beside the values) | hit rate 1.6% among 350,000 | AID 720706;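 active = significant combined selectivity score with lowered wild-type GFP, culture density cut under 30%, mutant RFP and density less affected; inactive = any of these conditions unmet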; also: one replicate is shown; some compounds called inactive have numbers as strong as hits
FGF22 binding: FGF22 (human) thermal shift binding. hit rate 1.5% among 340,000. Q9HCT0. recombinant FGF22 thermal shift, SYPRO orange fluorescence; percent of sucrose octasulfate shift, DMSO zero. AID 651658. calls only at 9.99 µM;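 active = melting point raised past a set limit in the mean and every replicate; inconclusive = no clear call; three in four hits are not shown here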
Target sequence (Q9HCT0 whole entry, looked up): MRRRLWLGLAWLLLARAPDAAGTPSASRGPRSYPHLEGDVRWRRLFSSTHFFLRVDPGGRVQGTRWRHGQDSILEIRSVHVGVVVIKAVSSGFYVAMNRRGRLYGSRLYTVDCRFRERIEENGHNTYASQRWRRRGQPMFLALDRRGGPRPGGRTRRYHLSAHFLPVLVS
Ecoli rRNA inh OD600: further read-out of Ecoli rRNA inh, marked with its call; OD600 change, %; measured here: OD600 growth;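 optical density of the mix in the first replicate; 0 = DMSO median and -100 = no signal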
Ecoli rRNA inh RFP: further read-out of Ecoli rRNA inh, marked with its call; RFP signal change, %; measured here: RFP humanized mutant strains;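 first replicate; 0 = DMSO median and -100 = no signal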
* hit, by the source's call; i = inactive; ? = inconclusive; · = no result given; & = joins results of further samples.

Sequence of screens – HNF4A DNA FP, Vif TR-FRET, Ecoli growth, FGF22 binding, Ecoli rRNA inh RFP, AF4-AF9 inh, Ecoli rRNA inh, ALR inh, Ecoli rRNA inh OD600
> Cc1ccc(N2CC(C(=O)NC3CCCCCC3)CC2=O)cc1 (centres undefined)
→ -2.2, ·, ·, i, -1.9, 2.4, 6, ·, 3
> CC(=O)N(CCc1cccc(C)c1)Cc1cc2cc(C)ccc2[nH]c1=O
→ 0.6, 10%, 0.65, i, 0.6, -1.9, 16, -3, 14
> CCOC(=O)C(C(=O)OCC)C(C[N+](=O)[O-])c1ccccc1 (centres undefined)
→ 3.3, 5%, 0.68, i, -0.6, -3.5, 4, -4, -4
> CCCn1c(N)c(C(=O)COC(=O)c2cccc(S(=O)(=O)N3CCOCC3)c2)c(=O)[nH]c1=O
→ 1.3, ?, 0.66, i, -1.4, 3.9, 2, 1, 1
> Cc1noc(C)c1NC(=O)N(C)C[C@@H]1Oc2ccc(NC(=O)CCC(F)(F)F)cc2CC(=O)N([C@H](C)CO)C[C@H]1C
→ ·, ·, ·, i, 2.2, -1.7, 3, ·, 15
> O=C(COc1cccnc1[N+](=O)[O-])Nc1ccc2c(c1)OCO2
→ -2.0, -11%, 0.64, i, 1.2, -0.6, 5, -6, -2
> C/C(=N\NC(=O)c1ccn(C)n1)c1ccc(NC(=O)C2CCC2)cc1
→ 0.1, ·, ·, i, 0.1, -4.9, 20, -8, 18
> C[C@@H]1CN([C@@H](C)CO)S(=O)(=O)c2ccc(-c3cccnc3)cc2O[C@@H]1CN(C)C(=O)c1cccc(F)c1
→ ·, ·, ·, i, 4.1, 5.0, -4, ·, -1
> CCCC[C@@H]1CNC(=O)C(=O)N1CCCCC1CCCCC1
→ -3.4, ·, ·, i, ·, -3.7, ·, ·, ·
> Cc1ccc(-c2n[nH]c(=S)c3ccccc23)cc1
→ 5.4, -29%, 0.73, i, 3.6, 0.0, -3, 1, 1
> CCOCCCNC(=O)CN1C(=O)CSc2cc(S(=O)(=O)N3CCCCCC3)ccc21
→ -0.7, -7%&3%, 0.65, i, -3.2, 5.6, 5, 2, 0
> c1ccc2sc(N3CCCCC3)nc2c1
→ 3.2, -9%, 0.64, i, 0.9, -4.3, -4, ·, -7
> Cc1ccc2nc(SCn3nnc4ccccc4c3=O)[nH]c2c1
→ -3.4, ·, 0.7, i, 1.9, -1.8, 26, -1, 9
> CCCS(=O)(=O)N1CCc2cc(OC)c(OC)cc2C1
→ 4.2, -4%, 0.74, ·, ·, ·, ·, -41, ·
> COc1ccc(NC(=O)C2CC(=O)OC2(C)C)cc1 (centres undefined)
→ -0.3, 5%, 0.63, ·, ·, ·, ·, -14, ·
> CCC(=O)Nc1ccc2c(c1)OC[C@@H](C)N(C(=O)c1ccc(F)cc1)C[C@H](C)[C@@H](OC)CN(C)C2=O
→ ·, ·, ·, i, -0.5, -1.3, 5, ·, 4
> COc1ccc(N2CC(C(=O)N3CCN(c4ccccc4F)CC3)CC2=O)cc1 (centres undefined)
→ 1.6, ·, 0.64, i, 2.1, -0.6, 7, ·, 0
> CCOC(CNC(=O)Cc1c(C)nc2c(-c3ccccc3)c(C)nn2c1C)OCC
→ 3.2, 1%, 0.64, i, -0.3, -3.7, 3, 1, 2
> Cn1c(Cn2c(=O)sc3ccccc32)nnc1SCC(=O)NCCc1ccccc1
→ 4.7, 28%, 0.73, i, 1.8, -1.6, 8, ·, 5
> C[C@H](CO)N1C[C@H](C)[C@@H](CN(C)S(=O)(=O)c2cccs2)Oc2c(NC(=O)Nc3ccccc3)cccc2C1=O
→ -3.6, ·, ·, ·, 1.0, ·, -3, -2, -7
> Cc1ccc(C(=O)c2ccc(CC(=O)O)n2C)cc1
→ -3.7, ·, 0.65, i, ·, -1.2, ·, -3, ·
> Cc1noc(C)c1NC(=O)Nc1ccc2c(c1)C(=O)N([C@@H](C)CO)C[C@@H](C)[C@@H](CN(C)Cc1ccc(C(F)(F)F)cc1)OCCCC[C@@H](C)O2
→ ·, ·, ·, i, 16, 8.4, 2, ·, -15
> CC(=O)Nc1sc(NC(=O)c2ccc(Cl)cc2)nc1-c1cccs1
→ -3.4, 27%, 0.68, ·, ·, ·, ·, 11, ·
> CC[n+]1c(S(=O)(=O)[O-])ccc2ccc(C)cc21
→ -0.6, -4%, 0.73, ·, ·, ·, ·, -4, ·
> Cc1ccccc1CNC(=O)Cc1cccs1
→ -3.2, 3%, 0.6, i, -0.7, -2.2, 2, -1, 12
> CS(=O)c1ccccc1COC(=O)Nc1cccc(Cl)c1 (centres undefined)
→ -2.3, 29%, 0.66, ·, ·, ·, ·, -3, ·
> CN(C(=O)c1ccc2c(c1)OCCO2)c1c(N)n(Cc2ccccc2)c(=O)[nH]c1=O
→ -0.9, 0%, 0.62, i, 0.5, -5.7, 11, -2, 15
> CCc1c(C)c(C#N)c2nc3ccccc3n2c1NCC1CCCO1 (centres undefined)
→ 5.5, 3%, 0.72, ·, ·, ·, ·, -1, ·
> C=CCN1C(=NC(=O)COc2ccccc2)SC2CS(=O)(=O)CC21 (centres undefined)
→ 1.1, 1%, 0.69, i, -1.8, -0.7, 4, 2, 8
> O=C(NCCN1CCOCC1)c1cn(-c2ccccc2)nc1-c1cccs1
→ -1.2, 4%, 0.7, ·, ·, ·, ·, 2, ·
> C(/C=C/C=C/Nc1ccccc1)=Nc1ccccc1
→ 2.7, 2%, ·, ·, ·, ·, ·, 1, ·
> CCOC(=O)Cn1c(=O)c2c(nc3n2CCCN3CCc2ccccc2)n(C)c1=O
→ 3.1, ·, 0.65, i, -0.8, 1.6, 6, -6, 0
> O=C(COc1ccccc1Cl)Nc1cc(Cl)ccc1Oc1ccccc1
→ -1.2, -5%, 0.7, ·, ·, ·, ·, ·, ·
> CCN1CCN(c2nc3ccccc3nc2NS(=O)(=O)c2ccc(NC(C)=O)cc2)CC1
→ -1.0, ·, 0.71, i, 1.3, -14, 4, -16, 3
> COc1ccc(C[C@H]2CN3C(=NC[C@@H]3Cc3ccccc3)N2CCNC(=O)CCC2CCCCC2)cc1
→ 0.9, -3%, ·, i, -32, 20, -56, -25, -82
> O=S(=O)(Cc1ccccc1)N1CCCCN2[C@H](CO)[C@@H](c3ccc(-c4cccnc4)cc3)[C@H]2C1
→ ·, ·, ·, i, -2.1, 0.2, 3, ·, 19
> Cn1c(=O)c2[nH]c(CN(Cc3ccccc3)Cc3ccccc3)nc2n(C)c1=O
→ -1.6, 1%, 0.62, ·, ·, ·, ·, -4, ·
> COC(=O)c1c(N(S(C)(=O)=O)S(C)(=O)=O)sc2c1CCN(c1ncc(C(F)(F)F)cc1Cl)C2
→ 3.8, 2%, 0.75, ·, ·, ·, ·, -6, ·
> O=c1[nH]c(C2CCN(S(=O)(=O)c3ccc(C(F)(F)F)cc3)CC2)nc2c1nnn2Cc1ccccc1
→ 0.3, ·, 0.68, i, 0.9, 0.3, -12, ·, -29
> O=C(c1cc2cc(Cl)ccc2[nH]1)N1CCN(c2ccc(F)cc2)CC1
→ 0.2, 3%, 0.67, i, -2.5, 0.2, 0, ·, 2
> O=C(CC1S/C(=N/N=C/c2cccs2)NC1=O)Nc1ccccc1F (centres undefined)
→ 0.5, 8%, ·, i, -1.2, -0.7, -4, 9, 3
> O=C(CCC(=O)N1CCN(S(=O)(=O)c2ccc(Cl)cc2)CC1)NCc1ccccc1
→ 1.4, 21%, 0.66, ·, ·, ·, ·, 1, ·
> CC(=O)N1[C@@H]2c3ccc(C4=CCCCC4)c(=O)n3C[C@H]1[C@H](CO)[C@H]2C(=O)N[C@@H](C)c1ccccc1
→ ·, ·, ·, i, -4.6, -1.0, 0, ·, 13
> CCC1CCCCN1CCCNC(=O)CN1C(=O)COc2ccc(S(=O)(=O)N3CCOCC3)cc21 (centres undefined)
→ 0.6, ·, 0.67, i, -15, -0.5, 6, -3, 2
> CC(C)c1nc(NCCO)c(C#N)c2c1CCCC2
→ -0.5, -8%, 0.61, i, ·, -0.2, ·, 4, ·
> O=C(C1CCN(S(=O)(=O)c2cccc3nsnc23)CC1)N1CCN(c2ccccc2F)CC1
→ -2.4, -3%, 0.7, ·, -4.7, ·, -13, 2, -6
> CCC(=O)N1C[C@@H](C)[C@H](OC)CN(C)C(=O)c2cc(NC(=O)C3CC3)ccc2OC[C@@H]1C
→ ·, ·, ·, i, 1.3, -1.2, 1, ·, -1
> CCOC(=O)c1c(C2CC2)csc1NC(=O)COC(=O)c1cc(OC)c(OC)cc1[N+](=O)[O-]
→ -0.2, ·, 0.73, i, -3.5, 1.3, -4, -19, -1
> Cc1ccc(S(=O)(=O)N(C)C)cc1NC(=S)Nc1ccc2cn[nH]c2c1
→ 1.3, -19%, 0.71, i, -2.1, 2.3, 3, ·, -5
> CCOC(=O)Cn1c(=O)oc2cc(S(=O)(=O)N3CCCC(C)C3)ccc21 (centres undefined)
→ 1.1, 3%, 0.71, i, -2.8, 0.3, 6, -4, 5
> COC(=O)c1cn(CC(C)n2c(=O)c3ccccc3n2Cc2cc(C(C)C)no2)nn1 (centres undefined)
→ 2.4, ·, ·, i, -6.2, -0.7, 1, ·, 6
> C[C@@H]1CN([C@H](C)CO)C(=O)c2cccc(NS(C)(=O)=O)c2O[C@H]1CN(C)C
→ ·, ·, ·, i, -2.4, -3.0, 2, ·, 5
> CCOC(=O)c1cc(C#N)c(Nc2ccc(C)cc2)nc1C(F)(F)F
→ 0.6, ?, 0.68, i, -0.6, -2.1, 5, -4, 5
> CCC(=O)NC(=S)Nc1ccc(NC(=O)COc2ccc(Cl)c(C)c2)cc1
→ 0.8, ·, 0.68, i, ·, 2.2, ·, 2, ·
> CCCCOc1ccc(OCCNS(=O)(=O)N(C)C)cc1
→ 0.4, -3%, 0.71, i, 0.1, -7.3, 1, -4, -7
> CC(C)(C)n1nnnc1C(c1ccncc1)N1CCCCCC1 (centres undefined)
→ -0.9, 30%, 0.67, ·, ·, ·, ·, -10, ·
> COc1cccc(CNCc2ccc3c(c2)OCO3)c1
→ 0.2, ·, 0.67, i, 0.8, -0.4, 17, 0, 7
> CC(CCc1ccccc1)NC(=O)CN1CCN(Cc2ccc(Cl)cc2)C1=O (centres undefined)
→ -2.3, -6%, 0.72, i, -5.9, -3.3, -21, ·, -15
> O=C(CN(C1CCCCC1)S(=O)(=O)c1ccccc1)NCc1ccco1
→ 0.6, ·, 0.67, ·, ·, ·, ·, -2, ·
> CCc1ccc(S(=O)(=O)Nc2nnc(N)s2)cc1
→ -4.0, ·, 0.6, i, 0.6, -30, 5, 0, 2
> COCc1ccc(CN2CCCC(CCC(=O)NCc3ccc(C)o3)C2)o1 (centres undefined)
→ -4.2, 8%, 0.7, i, 2.9, 2.6, 13, -21, 8
> CC(C)n1nc(C(=O)NCc2ccc3c(c2)OCO3)c2ccccc2c1=O
→ 4.5, -2%, 0.72, i, 0.5, -1.5, -16, -4, -26

These rows are one share of the data (hit frequency here may not be typical).
